Arbovirus inh: antivirals against arbovirus infection | arbovirus infection cell-based antiviral screen | inhibition, % at 10 µM | 200,000 compounds, 0.37% hits | AID 1251;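 active means inhibition from about 30%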;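 further: bluetongue infection of BSR cells; cell survival read as ATP light after 72 h; 0% = infected wells without compound and 100% = uninfected wells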
Mtb H37Rv: M. tuberculosis H37Rv growth inhibitors, H37Rv strain (AID 1626) | M. tuberculosis H37Rv growth inhibition; higher % means a stronger effect | inhibition, % at 10 µM; hits with a dose series show IC50 in µM | 220,000 compounds, 0.95% hits;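 active means confirmed in a dose series; inconclusive means inhibition above 80% but not taken into the dose series; inactive means below 80% or under 30% at every dose of the series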;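 further: bacteria incubated seven days before Alamar blue readout; 0% = bacteria only wells and 100% = bacteria with antibiotic wells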
YopH inh: inhibitors of Yersinia enterocolitica YopH tyrosine phosphatase; fluorescence Ex485/Em525; 140,000 compounds, 0.16% hits; inhibition, %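 (about 10 µM by stock and volumes)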;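 active means inhibition of 50% or more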;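 further: controls were vehicle for no effect and minimum signal wells for full effect; inactives centre near -20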
Mtb betalactam: beta-lactam sensitization of Mtb H37Rv. M. tuberculosis H37Rv growth with meropenem, percent inhibition; hits of this screen are not shown here. inhibition, % at 25 µM. 330,000 compounds, 0.27% hits;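 active means about 74% or more and at least 40 points above the plate without the antibiotic, then above 30% in a dose series; inconclusive means first-round hits that could not be retested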;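 further: growth measured after seven days incubation then overnight dye step; 0% = bacteria only wells and 100% = bacteria with antibiotic; twin plates without the antibiotic show which effects depend on it; some results filed as inactive read as strong as hits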
RecA splice inh: blocks M. tuberculosis RecA intein splicing. cell-free RecA intein splicing, fluorescence. inhibition, %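 (about 9 µM by stock and volumes)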. 290,000 compounds, 0.75% hits. AID 2221. P9WHJ3; in the data active means inhibition above about 30%; inconclusive means no clear call, values can overlap the other calls;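 further: 0% = vehicle wells and 100% = reference inhibitor control wells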
Target sequence (P9WHJ3 whole entry, looked up, canonical isoform): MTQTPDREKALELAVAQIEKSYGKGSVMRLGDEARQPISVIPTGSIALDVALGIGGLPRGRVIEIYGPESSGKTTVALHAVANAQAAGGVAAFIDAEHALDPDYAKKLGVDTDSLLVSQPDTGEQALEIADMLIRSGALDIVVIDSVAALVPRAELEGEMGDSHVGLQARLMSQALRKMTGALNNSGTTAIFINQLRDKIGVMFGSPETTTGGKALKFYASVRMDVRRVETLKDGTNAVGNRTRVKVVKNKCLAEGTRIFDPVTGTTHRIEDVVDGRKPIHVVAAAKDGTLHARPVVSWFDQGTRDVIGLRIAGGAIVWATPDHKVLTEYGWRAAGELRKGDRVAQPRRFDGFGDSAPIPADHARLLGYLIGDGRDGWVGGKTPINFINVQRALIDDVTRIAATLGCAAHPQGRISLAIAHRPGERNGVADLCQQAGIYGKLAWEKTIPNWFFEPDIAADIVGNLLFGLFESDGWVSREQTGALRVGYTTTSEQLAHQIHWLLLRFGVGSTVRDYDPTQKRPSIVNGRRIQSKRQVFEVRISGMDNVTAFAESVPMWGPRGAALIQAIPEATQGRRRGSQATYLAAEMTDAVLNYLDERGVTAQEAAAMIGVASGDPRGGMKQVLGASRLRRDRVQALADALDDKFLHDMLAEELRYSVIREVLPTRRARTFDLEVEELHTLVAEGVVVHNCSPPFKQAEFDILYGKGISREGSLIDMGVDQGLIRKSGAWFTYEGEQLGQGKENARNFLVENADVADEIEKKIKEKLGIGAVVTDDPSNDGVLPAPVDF
Arbovirus inh repeat: recorded beside Arbovirus inh, whose call it bears; inhibition, %; measured here: 10K subset replicate screen; many hits read low in the repeat;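 first of two repeat runs on a subset; 0% = infected and 100% = uninfected wells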
Active calls of the source: *; ? = inconclusive; · = no result given.

SMILES	Arbovirus inh	Mtb H37Rv	YopH inh	Mtb betalactam	RecA splice inh	others
CCOc1ccc(Nc2nc3cc(S(=O)(=O)N(CC)CC)ccc3o2)cc1	-20	-6%	0	-5	1.7
Cn1c(=O)c(C(=O)COC(=O)c2cc(C3CC3)nc3ccccc23)c(N)n(Cc2ccccc2)c1=O	12	9%	-29	81	·
CCOC(=O)c1[nH]c2c(c1C)C(=O)CC(c1ccc(N(C)C)cc1)C2 (stereo unspecified)	-14	-2%	-10	0	1.2	Arbovirus inh repeat=-13
CSc1ccccc1OCc1cc(C(=O)N[C@H]2CCCCNC2=O)no1	·	·	·	1	-0.5
COc1ccc(CC2(C)OC(c3ccc(C)cc3)=NN2C(C)=O)cc1 (stereo unspecified)	-3	2%	-5	7	10
Cc1ccc(C[n+]2c(-c3ccc(C)cc3)cc(-c3ccc(C)cc3)cc2-c2ccc(C)cc2)cc1	·	·	·	100	56*
Cc1ccc(C(C)C)c(OCC(=O)Nc2cccc(S(=O)(=O)NC3=NCCCCC3)c2)c1	·	·	·	4	3.6
CN(Cc1nc(Cc2ccccc2F)no1)CC1(N2CCOCC2)CCCCC1	0	3%	·	-3	0.2
O=C(CSc1nccc(=O)[nH]1)c1cc2ccccc2o1	·	-4%	·	-3	0.6
COC(=O)COc1ccc(-c2nccc(-c3ccccn3)n2)cc1	·	·	·	100	0.9
CCc1c(C)nc2ncnn2c1N1CCCC(C(=O)NCCc2ccc(OC)cc2)C1 (stereo unspecified)	5	-3%	-25	-7	2.5
C/C(=N/NC(=O)CNC(=O)C1COc2ccccc2O1)c1ccc2c(c1)OCCO2 (stereo unspecified)	-2	-7%	·	-5	-1.2
CC(C)C(O)(c1ccccc1)C(CN1CCOCC1)c1ccccc1 (stereo unspecified)	·	·	·	3	4.0
COc1cccc(C(=O)Nc2ccc(NC(=O)c3ccco3)nc2)c1	-7	-5%	-56	6	·
O=C(COc1ccc(Cl)cc1Cl)N1CCN(C/C=C/c2ccccc2)CC1	-25	17µM*	-12	100	18
CCN(CC)S(=O)(=O)c1ccc(OC(C)C)c(N)c1	4	-10%	·	-3	-3.9
Cc1n[nH]c(C)c1S(=O)(=O)N1CCCC(C(=O)NCc2cccs2)C1 (stereo unspecified)	3	-7%	-30	-9	2.2
Cc1noc(C)c1CSCC(=O)Nc1nc2ccc(Oc3ccccc3)cc2s1	8	15%	-7	25	11
Cc1nn(Cc2ccc(Cl)cc2Cl)c(Cl)c1/C=C/C(=O)OCC(=O)NCC(F)(F)F	4	-17%	-22	-11	-1.2
Cc1c(NC(=O)Cn2cc([N+](=O)[O-])cn2)c(=O)n(-c2ccccc2)n1C	-2	1%	·	-1	-9.4
Cc1cc(/C=C2/C(=O)NC(=O)N(c3ccc(Br)cc3)C2=O)c(C)n1C	·	0%	·	36	0.3
Cc1cc(C)cc(NC(=O)CN(c2ccc(F)cc2)S(C)(=O)=O)c1	-2	-7%	·	0	-3.5
O=C(COC(=O)CCc1ccc(S(=O)(=O)N2CCOCC2)cc1)NC1CCCC1	-2	-7%	-17	-7	-0.4
CCC1CN(C(=O)NCc2ccc(C)cc2)c2cc(C)ccc2O1 (stereo unspecified)	·	·	·	8	7.5
CCN(CCCNC(=O)C1CCN(S(=O)(=O)CC)CC1)c1ccccc1	4	4%	-43	8	-2.8

4 records picked at random from the list so far, as already listed:
SMILES	Arbovirus inh	Mtb H37Rv	YopH inh	Mtb betalactam	RecA splice inh	others
Cn1c(=O)c(C(=O)COC(=O)c2cc(C3CC3)nc3ccccc23)c(N)n(Cc2ccccc2)c1=O	12	9%	-29	81	·
CCc1c(C)nc2ncnn2c1N1CCCC(C(=O)NCCc2ccc(OC)cc2)C1 (stereo unspecified)	5	-3%	-25	-7	2.5
Cc1cc(/C=C2/C(=O)NC(=O)N(c3ccc(Br)cc3)C2=O)c(C)n1C	·	0%	·	36	0.3
CCN(CC)S(=O)(=O)c1ccc(OC(C)C)c(N)c1	4	-10%	·	-3	-3.9

Going on with the list:
SMILES	Arbovirus inh	Mtb H37Rv	YopH inh	Mtb betalactam	RecA splice inh	others
Cc1ccc2c(c1)C(c1ccccc1)N(C(=O)CC(C)C)CC(=O)N2 (stereo unspecified)	·	·	·	8	0.0
Cc1onc(-c2c(F)cccc2Cl)c1C(=O)OCC(=O)NCc1ccco1	7	-3%	-16	-5	0.7
Cc1cccc(-c2nc3ccccc3c(=O)n2NC(=O)c2ccc([N+](=O)[O-])c(C)c2)c1	-13	3%	-32	4	·
Nc1nnnn1/N=C/c1ccc(F)cc1	·	·	·	-10	-1.2
Cc1ccc(S(=O)(=O)NCC(=O)OCC(=O)Nc2cccc(S(=O)(=O)NC3=NCCCCC3)c2)cc1	9	0%	·	-1	2.7
COC(=O)c1c(NC(=O)CC2NCCNC2=O)sc2c1CCCC2 (stereo unspecified)	2	-2%	-26	0	0.5
Cc1ccc(S(=O)(=O)N(C)c2c(C)ccc(S(=O)(=O)N3CCN(C)CC3)c2C)cc1	-1	-5%	-34	-2	-0.4
CCCCn1c(O)c(C(C)=NCCCn2ccnc2)c(=O)[nH]c1=O	8	-2%	5	11	-1.3
CC(NC(=O)C1CCCN1S(=O)(=O)c1cccc2nsnc12)c1ccccc1 (stereo unspecified)	·	·	·	-8	-6.9
Cc1ccc(C(C)C)c(OCC#CCN2CCCC2)c1	11	-27%	·	-4	-0.2
O=C(O/N=C(\c1ccccc1)c1ccncc1)c1ccccc1Cl	0	0%	·	1	0.5
Cc1cc(C)c(S(=O)(=O)c2ccccc2C)c(OCC(C)(C)C)n1	-2	3%	-24	-4	21
CN(C)c1ccc(-c2nc3n(n2)C(c2cccnc2)C2=C(CC(C)(C)CC2=O)N3)cc1 (stereo unspecified)	-10	-1%	-13	4	-1.5
CCn1c(CNC(=O)c2cc(OC)c(OC)c(OC)c2)cc2ccccc21	·	·	·	0	-2.0
CC(=O)c1ccc(NC(=O)CN2CCCC2)cc1	·	·	·	2	0.0
O=C(NC(=O)N1CCN(c2ccccc2)CC1)c1ccc(Cl)cc1	-33	-8%	-29	-13	0.3
Cc1c(C)c2c(C)[nH]nc2oc1=O	5	-8%	-17	-10	2.2
O=C1CN=C(c2ccc[nH]2)c2cc(Cl)ccc2N1	·	6%	·	-7	5.8
C/C=C\C=C\C(=O)N1CC2(CC(c3cccc(NC(=O)/C(C)=C\C)c3)=NO2)C[C@H]1C(N)=O (stereo partly specified)	·	-1%	·	-10	4.7
CC1CCCCN1C(=O)Cn1cc(/C=C2/C(=O)Nc3ccccc32)c2ccccc21 (stereo unspecified)	-20	11%	8	·	·
Cc1nonc1C(=O)N/N=C/c1ccccc1	-2	4%	·	-8	·
O=C(CC1Oc2ccccc2NC1=O)NC1CCCC1 (stereo unspecified)	-1	-16%	·	4	·	Arbovirus inh repeat=3
O=C(CSc1ccccn1)N1CCN(c2ccc(Cl)cc2)CC1	11	-5%	-28	4	-2.1
C=CCNC(=S)N/N=C/c1ccc(OCc2ccccc2)cc1	·	·	·	-7	0.4
CSc1nc(-c2ccccc2)nn1C(=O)c1ccccc1	-1	·	-20	-1	2.1
Next section:
SMILES	Arbovirus inh	Mtb H37Rv	YopH inh	Mtb betalactam	RecA splice inh	others
Cc1nn2c(N)c(C#N)cnc2c1-c1ccc(Cl)cc1	-12	·	8	16	-4.1
CCCc1cc(=O)[nH]c(SCC(=O)Nc2ccc([N+](=O)[O-])cc2C#N)n1	·	3%	·	7	2.1
COc1ccc(OC)c(S(=O)(=O)NCC2CCCO2)c1 (stereo unspecified)	4	2%	-21	2	-1.6
Cn1cnnc1SCC(=O)NC1CCCN(Cc2ccc(Cl)cc2)C1 (stereo unspecified)	·	·	·	?	3.7
O=C(COc1ccc(F)cc1Cl)Nc1ccc(N2CCOCC2)cc1N1CCOCC1	·	·	·	-9	-1.0
COC(=O)C1C(O)=C(C=NCc2ccccc2)C(=O)CC1(C)C (stereo unspecified)	5	-8%	-77	-8	·
CCN(CC)S(=O)(=O)c1cccc(-c2nnc(SCC(=O)c3ccc(Cl)s3)n2C)c1	1	-2%	-17	10	0.8
CCC1CCCCN1C(=O)CSc1nc2ncccc2[nH]1 (stereo unspecified)	·	·	·	?	-0.7
CCNc1c(NS(=O)(=O)c2ccc(C3CCCCC3)cc2)c(=O)oc2ccccc12	·	·	·	-2	-0.3
CCOC(=O)c1c(N=CN(C)C)c(C#N)n2c1CCC2	-2	3%	-40	2	0.8	Arbovirus inh repeat=2
CC1Cc2ccccc2N1C(=S)NC1CCCC1 (stereo unspecified)	·	·	·	5	0.5
CCCC(C)C(=O)Nc1cc([N+](=O)[O-])ccc1Cl (stereo unspecified)	1	2%	·	1	-0.8
O=C(/C=C/c1ccc(Cl)cc1)N1CCN(c2c(Cl)cccc2[N+](=O)[O-])CC1	-7	16%	-13	83	4.5
CCc1ccc(OCC(=O)Nc2ncn[nH]2)cc1	-1	6%	·	-3	0.0
Cc1ccc(CNC(=O)c2ccc(CS(=O)Cc3ccccc3Cl)o2)cc1 (stereo unspecified)	·	·	·	-3	0.3
COc1ccc(NC(=O)CC2C(=O)NCCN2C(=O)c2ccccc2)cc1 (stereo unspecified)	·	-1%	·	-3	2.4
Nc1cnn(Cc2ccc(F)cc2)c1	-11	>100µM*	·	91	3.3
COc1ccc(-c2nc(N3CCCCCC3)sc2C(=O)c2ccccc2)cc1	-8	15%	-27	11	2.2
CCP(=O)(CC)c1cccc(N)c1	0	-4%	-50	1	-2.1
CSc1nncc(/C(C)=N\Nc2cccc(C)c2)n1	-7	7%	-19	5	-0.2
Cc1ccc(S(=O)(=O)N2CCC(NC(=O)c3cccc(F)c3)CC2)cc1	·	·	·	-3	0.4
CC(C)(C)NCC(O)c1cc(O)cc(O)c1 (stereo unspecified)	3	17%	-41	-7	-2.9
Cc1nnc(Nc2ccc(C(=O)O)cc2)[nH]c1=O	4	-12%	·	-7	-0.3

Gathered by group, those above containing a Cl atom (14)
SMILES	Arbovirus inh	Mtb H37Rv	YopH inh	Mtb betalactam	RecA splice inh	others
O=C(COc1ccc(Cl)cc1Cl)N1CCN(C/C=C/c2ccccc2)CC1	-25	17µM*	-12	100	18
Cc1nn(Cc2ccc(Cl)cc2Cl)c(Cl)c1/C=C/C(=O)OCC(=O)NCC(F)(F)F	4	-17%	-22	-11	-1.2
Cc1onc(-c2c(F)cccc2Cl)c1C(=O)OCC(=O)NCc1ccco1	7	-3%	-16	-5	0.7
O=C(O/N=C(\c1ccccc1)c1ccncc1)c1ccccc1Cl	0	0%	·	1	0.5
O=C(NC(=O)N1CCN(c2ccccc2)CC1)c1ccc(Cl)cc1	-33	-8%	-29	-13	0.3
O=C1CN=C(c2ccc[nH]2)c2cc(Cl)ccc2N1	·	6%	·	-7	5.8
O=C(CSc1ccccn1)N1CCN(c2ccc(Cl)cc2)CC1	11	-5%	-28	4	-2.1
Cc1nn2c(N)c(C#N)cnc2c1-c1ccc(Cl)cc1	-12	·	8	16	-4.1
Cn1cnnc1SCC(=O)NC1CCCN(Cc2ccc(Cl)cc2)C1 (stereo unspecified)	·	·	·	?	3.7
O=C(COc1ccc(F)cc1Cl)Nc1ccc(N2CCOCC2)cc1N1CCOCC1	·	·	·	-9	-1.0
CCN(CC)S(=O)(=O)c1cccc(-c2nnc(SCC(=O)c3ccc(Cl)s3)n2C)c1	1	-2%	-17	10	0.8
CCCC(C)C(=O)Nc1cc([N+](=O)[O-])ccc1Cl (stereo unspecified)	1	2%	·	1	-0.8
O=C(/C=C/c1ccc(Cl)cc1)N1CCN(c2c(Cl)cccc2[N+](=O)[O-])CC1	-7	16%	-13	83	4.5
Cc1ccc(CNC(=O)c2ccc(CS(=O)Cc3ccccc3Cl)o2)cc1 (stereo unspecified)	·	·	·	-3	0.3

The list is partial. The share of hits here may be higher or lower than overall.
